Compound activity deposited in PubChem by Sanford-Burnham Center for Chemical Genomics.
MT1-MMP promoter = inhibitors of MT1-MMP promoter transcription, cell-based, luciferase reporter, luminescence (AID 618) | MT1-MMP promoter luciferase reporter cells, luminescence | calls from a first round at 10 µM; hits with a dose series show EC50 in µM | actives 0.62% (n = 87,000);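 active = over half of the reporter light lost at 10 µM or EC50 under 50 µM; inactive = the rest and hits that failed the dose series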;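 note: actives suppress MT1-MMP promoter-driven transcription so potencies describe inhibitors; HT1080 fibrosarcoma cells; overnight exposure; toxic or luciferase-blocking compounds were not removed from the actives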
Starred values were filed as active, the others as inactive; i = inactive.

No. | SMILES | MT1-MMP promoter
1 | CCCC[C@@H]1C[C@H]1C(NC(=O)c1ccco1)c1ccc(-c2ccccc2)cc1 (stereo partly drawn) | i
2 | C/C(CCC12CC3CC(CC(C3)C1)C2)=N\NC(N)=S | i
3 | CCCC[C@@H]1C[C@H]1C(NC(=O)c1ccco1)c1ccc(C(=O)OC)cc1 (stereo partly drawn) | i
4 | O=C(Nc1ccc(Cl)cc1)N1CCCN(Cc2ccccc2F)C1 | i
5 | Cc1nnc(SCCC(=O)Nc2ccc(F)cc2)s1 | i
6 | Cc1ccc(NC(=O)Nc2cccs2)c(Cl)c1 | i
7 | COC(=O)N1[C@H](Cc2ccccc2)C=C[C@]1(C)C(=O)O | i
8 | CC(=O)Nc1cccc(N2C(=O)CCC2=O)c1 | i
9 | CC(NC(=O)c1ccc(F)cc1)c1nc2ccccc2n1Cc1ccccc1F (stereo not drawn) | i
10 | CC(=O)Nc1ccc2c(c1)N(C(=O)CN(C)C)c1ccccc1CC2 | i
11 | CC(C)(C)CC(C)(C)NC1=CC(=O)OC12CCCCC2 | i
12 | Cn1c(=O)c2c(nc(NCC3CCCO3)n2Cc2cccc(Br)c2)n(C)c1=O (stereo not drawn) | i
13 | Cc1ccc(N(Cc2ccccc2F)S(C)(=O)=O)cc1C | i
14 | COC(=O)N1CC=CC1(C)C(=O)O (stereo not drawn) | i
15 | CCOC(=O)c1cc(-c2ccc(C)cc2)n(CCC(=O)NCCCOC)c1C | i
16 | Cc1ncc(S(=O)(=O)c2ccccc2)c(-c2ccccc2Cl)n1 | i
17 | CCOC(=O)Cc1csc(NC(=O)CCCN2C(=O)c3ccccc3C2=O)n1 | i
18 | OC(COc1ccc2ccccc2c1Br)Cn1cnc(-c2ccccc2)c1 (stereo not drawn) | i
19 | c1ccc(-n2ncc3c(N4CCC5(CC4)OCCO5)ncnc32)cc1 | i
20 | CCOC(=O)N1CCN(C(=O)Nc2cccc(Cl)c2)CC1 | i
21 | CCN(CC)CCNC(=O)c1ccc2c(=O)n(C3CCCC3)c(=S)[nH]c2c1 | i
22 | COc1ccc(C(=O)Nc2ccc(F)cc2F)cc1 | i
23 | CCN(CC)C(=O)CSc1nc2c(sc(=S)n2CC)c(=O)n1-c1ccccc1 | i
24 | Cc1ccc(S(=O)(=O)Nc2cccnc2)cc1 | i
25 | Nc1nc(N)nc(-c2ccc(Oc3ccccc3)cc2)n1 | i
26 | O=c1oc2ccccc2c2oc3cc(O)c(O)cc3c12 | i
27 | CCOP(=O)(O)c1ccccc1OCCOc1ccccc1P(=O)(O)OCC | i
28 | CCc1cc2c(=O)nc3n(c2s1)Cc1ccccc1/C3=C(/O)c1ccc(F)cc1 | i
29 | COc1ccc(C)cc1S(=O)(=O)N(C)CC(=O)NC1CC1 | i
30 | O=S(=O)(Nc1nc2ccc(S(=O)(=O)N3CCCCC3)cc2s1)c1ccccc1 | i

A different layout for some results above:
20	CCOC(=O)N1CCN(C(=O)Nc2cccc(Cl)c2)CC1
- MT1-MMP promoter: i

21	CCN(CC)CCNC(=O)c1ccc2c(=O)n(C3CCCC3)c(=S)[nH]c2c1
- MT1-MMP promoter: i

The results go on:
No. | SMILES | MT1-MMP promoter
31 | CC1CCN(C(=S)c2ccc(O)cc2)CC1 | i
32 | CNc1c([N+](=O)[O-])ncn1C | i
33 | Cc1ccc(/C=C(/C#N)C(=O)NC(=O)Oc2ccccc2)cc1 | i
34 | C=C1C(=O)C=C2CN(C(=O)c3ccccc3)[C@@](Cc3ccc(F)cc3)(C(=O)OC)[C@@H]12 | i
35 | CC(C)c1cccc2nc3c(c([Si](C)(C)C(C)(C)C)c12)Cn1c-3cccc1=O | i
36 | CC1CN(C(=O)C(c2ccccc2)c2ccccc2)CC(C)O1 (stereo not drawn) | i
37 | N#Cc1c(Sc2ncc(C(F)(F)F)cc2Cl)nsc1C/C=N\OCc1ccccc1Br | i
38 | COC(=O)[C@H]1C[C@@H]1[C@H](NS(=O)(=O)c1ccc2ccccc2c1)c1ccccc1 | i
39 | CCOc1ccc2c(C)cc(=O)oc2c1OCC | i
40 | Cc1ccccc1-c1nc(CN2CCC(C(=O)NCc3cccs3)CC2)c(C)o1 | i
41 | CCCC/C=C/C(NC(=O)c1ccccc1)c1ccccc1 (stereo not drawn) | i
42 | COC(=O)c1ccc(C(NC(=O)OCc2ccccc2)/C(I)=C/[C@@H](C)C(=O)NCc2cc(C)n(C)n2)cc1 (stereo partly drawn) | i
43 | COC(=O)c1ccc(C23CC4(C2)[C@H](CN(C)[C@@H]4c2ccccc2)C3c2ccccc2)cc1 (stereo partly drawn) | i
44 | CCc1ccc(NC(=O)c2ccnc(C(C)(C)C)c2)cc1 | i
45 | c1cc2ccc3ccc(CN4CCOCC4)c4ccc(c1)c2c34 | i
46 | N/C(=N\c1nc2c(c(=O)[nH]1)CCCC2)Nc1ccccc1Sc1ccccc1 | i
47 | CCCCCCC1CCC(C(=O)Nn2c(C)nc3ccccc3c2=O)CC1 (stereo not drawn) | i
48 | CC1(C)CC2CC(C)(CN2C(=O)COc2cccc3ccccc23)C1 (stereo not drawn) | i
49 | CC(=O)Nc1cc(C(=O)N2CCCC2)ccc1Sc1ccc(Cl)cc1 | i
50 | O=C(NCN1C(=O)C2C3C=CC(C3)C2C1=O)Nc1cccnc1 (stereo not drawn) | i
51 | COC(CNC(=O)c1ccc(N2CCCC2=O)cc1)OC | i
52 | COc1ccc(N2C(=O)CCC(C(=O)NCc3cccnc3)C2c2ccc(OC)c(OC)c2)cc1 (stereo not drawn) | i
53 | CSc1ccccc1C(=O)NCCSc1ccccc1 | i
54 | CC1=C(C(=O)OCc2ccccc2)C(c2ccc(Br)cc2)NC(=O)N1CCCCCC(=O)O (stereo not drawn) | i
55 | COC(=O)c1cccc(C23CC4(C2)[C@H](CN(Cc2cccnc2)[C@@H]4c2ccccc2)C3c2ccccc2)c1 (stereo partly drawn) | i
56 | CC(=O)Nc1nc(COc2ccc3ccccc3c2)cs1 | i
57 | c1ccc(-c2cn3nc4c(nc3n2)CCCC4)cc1 | 0.54µM*
58 | CCOc1c(Cl)cc(CNCC(C)C)cc1OC | i
59 | COC(=O)[C@@H]1C[C@H]1[C@@H](NS(=O)(=O)c1ccc2ccccc2c1)c1ccccc1 | i
60 | O=C(Nc1ccc(Br)cc1)c1cccc(NC(=O)C2C3CC4OC(=O)C2C4C3)c1 (stereo not drawn) | i

Continuation.
No. | SMILES | MT1-MMP promoter
61 | COc1ccc(-c2nc(CSCC(=O)NCCC3=CCCCC3)c(C)o2)cc1OC | i
62 | CCOCCCNCc1ccc(OC)cc1 | i
63 | CC1CCCN(C(=O)CCS(=O)(=O)Cc2ccccc2)C1 (stereo not drawn) | i
64 | CCCOc1ccc(C(=O)Nc2ccc(Cl)cn2)cc1 | i
65 | COCCn1c(C(=O)N2CCCC2)cc2c1C[C@H]1CN(C(=O)c3ccccc3)[C@@](Cc3ccc(OC)cc3)(C(=O)OC)[C@@H]21 | i
66 | COC(=O)[C@@]1(Cc2ccc(F)cc2)[C@H]2c3cc(C(=O)N4CCCC4)n(CC4CC4)c3C[C@H]2CN1C(=O)c1ccccc1 | i
67 | COc1ccc(S(=O)(=O)Nc2ccc3c(c2)OCO3)cc1 | i
68 | Cc1ccccc1CN(c1ccc(C(=O)NCCC2=CCCCC2)cc1)S(C)(=O)=O | i
69 | CCC1=C2CC[C@H]3C(=O)N(c4ccccc4)C(=O)[C@H]3[C@H]2[C@@]2(C)C(=NCC(=O)OC)OC(=O)N2C1=O | i
70 | COc1ccccc1CNC(=O)c1nn(-c2ccc(C)cc2)c(=O)c2c1c1ccccc1n2C | i
71 | O=C(O)c1cc(-c2ccccc2)n(-c2ccccc2)n1 | i
72 | COC(=O)[C@@]1(Cc2ccc(F)cc2)[C@H]2c3cc(C(=O)N4CCCC4)n(Cc4ccccn4)c3C[C@H]2CN1C(=O)c1ccccc1 | i
73 | COC(=O)c1c(NC(=O)c2cccnc2)sc(C)c1C | i
74 | Cc1nc2c(C(=O)N3CCOCC3)cnn2c(C)c1Cc1ccc(Cl)cc1 | i
75 | COC(=O)[C@@]1(Cc2ccc(F)cc2)[C@H]2c3cc(C(=O)N(C)C)n(Cc4c(CO)[nH]cc(C)c4=O)c3C[C@H]2CN1C(=O)c1ccccc1 | i
76 | O=C1C2C3C=CC(C3)C2C(=O)N1c1cccnc1 (stereo not drawn) | i
77 | Cc1nc2c(ccc3c2ccc2nc(C)sc23)s1 | i
78 | O=C(CCC1CC(=O)Nc2ccccc21)NCc1ccc(F)cc1 (stereo not drawn) | i
79 | COC(=O)[C@@H]1C[C@H]1[C@@H](NS(=O)(=O)c1ccccc1)c1ccccc1 | i
80 | CCCCN(CC)Cc1ccc(CNC(=O)Nc2ccc(OCC)cc2)o1 | i
81 | COC(=O)c1ccc(C23CC4(C2)[C@H](CN(C)[C@@H]4c2ccccc2)C3c2ccc(C(F)(F)F)cc2)cc1 (stereo partly drawn) | i
82 | COC(=O)c1cc(NC(=O)c2cccc(C(F)(F)F)c2)c(=O)oc1C/C=N/OCc1cccc(Cl)c1Cl | i
83 | COC(=O)c1cccc(C23CC4(C2)[C@H](CN(Cc2ccc(C(F)(F)F)cc2)[C@@H]4c2ccccc2)C3c2ccc(Cl)nc2)c1 (stereo partly drawn) | i
84 | CC1=C(C(=O)OCc2ccccc2)C(c2ccc([N+](=O)[O-])cc2)NC(=O)N1CCCCCC(=O)O (stereo not drawn) | i
85 | COc1ccc2cc3cc(C(=O)NCc4ccco4)oc3nc2c1 | i
86 | CCn1c(Cc2ccc(OC)cc2)nnc1SCC(=O)N1CCN(c2ccccc2)CC1 | i
87 | Cc1ccc(-c2noc(CSc3nnc(CCc4ccccc4)n3-c3ccccc3)n2)cc1 | i
88 | Cc1ccc(CS(=O)(=O)CCC(=O)NCCN(C)Cc2ccccc2)cc1 | i
89 | CCOC(=O)c1sc(NC(C)=O)nc1-c1ccccc1 | i
90 | OC1CCCN(Cc2c3ccccc3cc3ccccc23)C1 (stereo not drawn) | i

Going on with the list.
No. | SMILES | MT1-MMP promoter
91 | CS(=O)(=O)N(CC(=O)N1CCCC1)c1ccc2c(c1)OCCO2 | i
92 | Cc1cc(C)n2c(Nc3ccc4c(c3)OCCO4)c(-c3ccccc3)nc2n1 | i
93 | CCC1=C2CC[C@H]3C(=O)N(c4ccccc4)C(=O)[C@H]3[C@H]2[C@@]2(Cc3ccccc3)C(=NCC3CC3)OC(=O)N2C1=O | i
94 | COc1ccc2c(c1OC)C(=O)OC2CC(=O)O (stereo not drawn) | i
95 | C=CCSc1nc(N)c(C(=O)Nc2ccccc2)cc1C#N | i
96 | CC(=O)C1=C(O)C(=O)N(c2nccs2)C1c1ccccc1 (stereo not drawn) | i
97 | COC(=O)N1[C@H](Cc2ccccc2)C=C[C@]1(C)C(=O)NCc1ccc(N(C)C)cc1 | i
98 | CCOC(=O)CNC(=O)c1ccccc1 | i
99 | Cc1cc(C)c2nc(N3CCCC(C(=O)N4CCN(c5ncccn5)CC4)C3)sc2c1 (stereo not drawn) | i
100 | FC(F)(F)c1ccc(C2[C@H]3CN(Cc4cccnc4)[C@H](c4ccccc4)C34CC2(c2ccccc2)C4)cc1 (stereo partly drawn) | i
101 | COC(=O)CNS(=O)(=O)c1ccc(OC)cc1 | i
102 | Cn1cc(C(CC(=O)O)C(=O)O)c2ccccc21 (stereo not drawn) | i
103 | CN1CCN(C(=O)c2ccc(N3CCCC3=O)cc2)CC1 | i
104 | C=CCS/C(=N\n1cnc2ccccc2c1=O)N(CC)CC | i
105 | O=C(NCCOc1nc(N2CCOCC2)nc(N2CCOCC2)n1)Nc1ccccc1 | i
106 | COc1ccc(C2C(C#N)C(C#N)N3CCCN23)cc1 (stereo not drawn) | i
107 | COC(=O)[C@@]1(Cc2ccc(OC)cc2)[C@H]2c3cc(C(=O)N4CCCC4)n(CCO)c3C[C@H]2CN1C(=O)c1ccccc1 | i
108 | CCCN1[C@H](C(=O)OC)C[C@@]2(O)[C@@H](O)[C@@H](O)[C@@H](O)C[C@@H]12 | i
109 | CCCCNC(=O)C(c1ccc(OCC(=O)OC)c(C(=O)OC)c1)N(CCc1ccccc1)C(=O)CCCCCN1C(=O)NC(c2ccc(-c3ccccc3)cc2)C(C(=O)OCc2ccccc2)=C1C (stereo not drawn) | i
110 | Cc1ccc(CNC(=O)[C@H](C)[C@H]2C[C@]2(C)[C@H](NC(=O)OCc2ccccc2)c2ccccc2)c(F)c1F | i
111 | Clc1ccc(-c2nnc3n2CCCCC3)cc1 | i
112 | O=C(NCc1ccccn1)c1ccc(Cl)s1 | i
113 | Cc1ccc(NC(=O)CCn2nc(C)cc2C)cc1 | i
114 | CCOC(=O)C1=C(C)N(Cc2ccc(C(=O)O)cc2)C(=O)NC1c1ccc([N+](=O)[O-])cc1 (stereo not drawn) | i
115 | Cc1ccc(C2NC(=O)Cc3ccccc32)cc1 (stereo not drawn) | i
116 | CCCC(=O)Nc1ccc(C(=O)Nc2nc(CC(=O)OCC)cs2)cc1 | i
117 | CCOC(=O)c1cc(C)n(Cc2ccc(OCC)c(OC)c2)c1C | i
118 | CCOC(=O)c1cc(=O)n(Cc2ccccc2C)c2ccccc12 | i
119 | CCOCCCn1c(SCC(=O)NCc2ccco2)nc2c(sc3ccccc32)c1=O | i
120 | CN(CC(=O)Nn1cnnc1)S(=O)(=O)c1ccc(Br)cc1 | i
121 | COC(=O)[C@@]1(Cc2ccc(OC)cc2)[C@H]2c3cc(C(=O)N(C)C)n(Cc4ccccc4)c3C[C@H]2CN1C(=O)c1ccccc1 | i
122 | CCOC(=O)N1CCN(C(=O)c2ccc3c(c2)N(Cc2ccc(C)cc2)CCS3)CC1 | i

Rewritten as labelled records: four of the compounds above
#112 O=C(NCc1ccccn1)c1ccc(Cl)s1
  MT1-MMP promoter: i
#113 Cc1ccc(NC(=O)CCn2nc(C)cc2C)cc1
  MT1-MMP promoter: i
#114 CCOC(=O)C1=C(C)N(Cc2ccc(C(=O)O)cc2)C(=O)NC1c1ccc([N+](=O)[O-])cc1 (stereo not drawn)
  MT1-MMP promoter: i
#115 Cc1ccc(C2NC(=O)Cc3ccccc32)cc1 (stereo not drawn)
  MT1-MMP promoter: i

An excerpt; the hit share may differ from the screen's.
